AmpC nodet inh = Promiscuous and Specific Inhibitors of AmpC Beta-Lactamase (assay without detergent). P00811. AmpC nitrocefin hydrolysis, absorbance 480 nm, no detergent; potencies from a single point are estimates. Potency, µM (titrated, usually from 28.7 µM), without a hit: at the highest dose activity change, negative = inhibition. 71,000 tested, 1.8% active. AID 585, 2007; active = falling curve, for most hits resting on a single point; inconclusive = weak or doubtful change; inactive = flat or rising curve; also: % of control where 0% means no effect; about half of the hits show no inhibition at the top dose; a quarter of the inactives give rising signals
Target sequence (P00811 whole entry, looked up): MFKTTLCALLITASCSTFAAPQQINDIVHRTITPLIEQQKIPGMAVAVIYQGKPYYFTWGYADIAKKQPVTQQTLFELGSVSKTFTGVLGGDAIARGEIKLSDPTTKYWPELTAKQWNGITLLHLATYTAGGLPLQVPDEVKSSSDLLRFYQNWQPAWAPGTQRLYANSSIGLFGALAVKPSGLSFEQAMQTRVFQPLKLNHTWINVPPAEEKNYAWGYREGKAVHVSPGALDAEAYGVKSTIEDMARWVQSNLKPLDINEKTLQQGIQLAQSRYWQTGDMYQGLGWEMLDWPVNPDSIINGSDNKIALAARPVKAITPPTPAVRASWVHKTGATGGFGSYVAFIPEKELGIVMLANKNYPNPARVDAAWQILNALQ
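AmpC in 20 mM phosphate buffer pH 7.0 was preincubated 15 min at room temperature with compounds. Nitrocefin (800 uM stock) was then added and hydrolysis followed at 480 nm every 20 s for 4 min.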
An asterisk follows results filed as active; & = joins results of further samples; [ ] = dose if it differs, or a comment. Potency is read from the fitted curve at half-maximal effect. An excerpt; the hit share may differ from the screen's.

canonical_smiles,AmpC nodet inh
COc1ccc(-n2nnnc2-c2cccnc2)cc1,1%
O=C(Nc1nc(-c2ccc(S(=O)(=O)N3CCCC3)cc2)cs1)c1cccs1,-12%
COCCn1c(=O)c(-c2cccs2)nc2cnc(N3CCN(C)CC3)nc21,65%
CCn1nc(-c2ccccc2)c2nc3ccccc3nc21,52%
CCN(CC(=O)NCc1ccc(F)cc1)C(=O)C1CCN(C(=O)Nc2ccccc2)CC1,26%
CCOC(=O)N1CCC(N2Cc3cccc(C(=O)NCc4ccccn4)c3C2=O)CC1,73%
O=C(Nc1ccc2c(c1)OCO2)c1cnn2cccnc12,6%
CS(=O)(=O)Nc1ccc(C(=O)NCCc2ccccc2)cc1,-3%

Following part:
canonical_smiles,AmpC nodet inh
CCOc1ccccc1NC(=O)CN1C(=O)COc2ccc(Cl)cc21,16%
COc1ccc(S(=O)(=O)Nc2cccc(SC)c2)cc1OC,-2%
CCN(CC)C(=O)C1CC(=O)N(c2ccc(F)c(Cl)c2)C1 (centres undefined),16%
CCC1CCCCN1S(=O)(=O)c1ccc(NC(=O)CSc2ncccc2C(=O)O)cc1 (centres undefined),-23%
CCOC(=O)C1CCN(C(=O)c2cn(C)c(=O)c3cc(OC)c(OC)cc23)CC1,19%
COc1ccc(-c2nc(CN3CCC(C(=O)NC4CCCc5ccccc54)CC3)c(C)o2)cc1OC (centres undefined),122%
CN1C(=O)NC(NC(=O)c2cccs2)(C(F)(F)F)C1=O (centres undefined),-1%
O=C1c2ccccc2C(=O)N1CCCOCc1c[nH]c(=O)[nH]c1=O,-8%

Some of these compounds in order of SMILES length, smallest number first:
canonical_smiles,AmpC nodet inh
O=C(Nc1ccc2c(c1)OCO2)c1cnn2cccnc12,6%
CS(=O)(=O)Nc1ccc(C(=O)NCCc2ccccc2)cc1,-3%
CN1C(=O)NC(NC(=O)c2cccs2)(C(F)(F)F)C1=O (centres undefined),-1%
CCN(CC)C(=O)C1CC(=O)N(c2ccc(F)c(Cl)c2)C1 (centres undefined),16%
O=C1c2ccccc2C(=O)N1CCCOCc1c[nH]c(=O)[nH]c1=O,-8%
CCOC(=O)C1CCN(C(=O)c2cn(C)c(=O)c3cc(OC)c(OC)cc23)CC1,19%
COc1ccc(-c2nc(CN3CCC(C(=O)NC4CCCc5ccccc54)CC3)c(C)o2)cc1OC (centres undefined),122%

Next entries.
canonical_smiles,AmpC nodet inh
O=C1OCCC1Sc1nc2ccccc2n1Cc1ccccc1 (centres undefined),43%
O=C(Nc1ccc2c(c1)OCCO2)C1CCN(S(=O)(=O)Cc2ccccc2)CC1,4%
O=C(O)c1cccc(Cn2cc(Br)cn2)c1,-4%
Cc1ccc(NC2=Nc3ccccc3CS2)cc1,-16%
CCn1ncc(Br)c1C(=O)Nc1nccs1,2%
O=C(O)C1C2C=CC3(CN(C4CCCC4)C(=O)C13)O2 (centres undefined),-8%
COc1ncc2nc(-c3cc(F)cc(F)c3)c(=O)n(CCc3ccccc3)c2n1,-9%
Cn1cc(CCC(=O)N2CCC3(CC2)OCCO3)c2ccccc21,33%

Carrying on.
canonical_smiles,AmpC nodet inh
CCN=C1SC(CC(=O)Nc2ccccc2)C(=O)N1CC (centres undefined),10%
O=c1[nH]oc2c1CCNC2,19%
O=c1nc(-c2ccccc2)cn[nH]1,-7%
O=C(c1ccc(Cl)cc1)C1C2C(=O)N(c3ccccc3)C(=O)C2C2CCCN21 (centres undefined),3%
O=C(O)CCSc1nnc(-c2ccc3c(c2)OCO3)o1,-8%
CC1CCCN(C(=O)c2cc3c(-c4ccc(Cl)cc4)nn(C)c3s2)C1 (centres undefined),28%
O=C(OCC(=O)N1CCN(C(=O)c2ccco2)CC1)c1sc2ccccc2c1Cl,99%
COc1ccc(NC(=O)C(CCS(C)(=O)=O)NC(C)=O)cc1 (centres undefined),-12%

New compounds follow
canonical_smiles,AmpC nodet inh
O=C1NCN(c2ccccc2)C12CCN(C[C@H]1COc3ccccc3O1)CC2,43%&6%
O=C(O)CCCC(=O)Nc1nc(-c2ccccc2)cs1,-2%
CCOC(=O)C1=C(C)NC2=C(C(=O)CC(C)(C)C2)C1c1cccc(C)n1 (centres undefined),12%
Cc1cc(NC(=O)CSc2cn(CCNC(=O)c3ccc(F)cc3)c3ccccc23)no1,-24%
OC(C#Cc1ccccn1)c1cccs1 (centres undefined),7%
Cn1c(=O)c2c(nc(CN3CCN(Cc4ccccc4)CC3)n2CCN2CCOCC2)n(C)c1=O,55%
C[C@H](N)[C@H](O)c1ccc(O)c(O)c1,-18%[12.8 µM]
CCC1Oc2ccccc2N(CC(=O)NCCCN2CCCCC2C)C1=O (centres undefined),3%

Continued.
canonical_smiles,AmpC nodet inh
N#Cc1c(N)nc(SCc2ccccc2)c(C#N)c1-c1ccco1,-20%
O=C(COc1ccccc1)Nn1cnc2ccccc21,4%
COCCCNC(=O)CCc1nc(-c2ccccc2)no1,5%
COc1ccc(CCNS(=O)(=O)c2ccc(C3CNC(=O)C3)cc2)cc1OC (centres undefined),5%
COc1ccc(CNC(=O)C2CCCN2S(=O)(=O)c2ccc(C)cc2)cc1 (centres undefined),24%
Cc1ccc(N2CC(C(=O)NCc3cccnc3)CC2=O)cc1 (centres undefined),0%
CC1CN(C(=O)c2cc3ccccc3oc2=O)CC(C)O1 (centres undefined),1%
COc1ccc(-c2nnc(Nc3nc4c(OC)cccc4s3)o2)c(OC)c1,118%

(listing goes on)
canonical_smiles,AmpC nodet inh
O=C(CSc1nnc(NC(=O)C2CCC2)s1)NC1CC1,-2%
CN1/C(=N\O)c2cccc3cccc1c23,5%
CC(=O)OC/C=C(\C)CCC=C(C)C,2%
Cn1c(=O)[nH]c(=O)c2c1nc(N1CCCCCC1)n2CCSc1nc2ccccc2o1,7%
CC(C)C[C@@H](CC(=O)N[C@@H](CCC(=O)O)CC(=O)O)NC(=O)[C@@H]1CCCC[C@H]1NC(=O)C[C@H](CCCN)NC(=O)C[C@H](Cc1ccccc1)NC(=O)[C@@H]1CCCC[C@H]1N,154%
CC1CCN(S(=O)(=O)c2ccc(NC(=O)Cn3nnc(-c4ccccc4)n3)cc2)CC1,-13%
Cn1cccc1Cc1nnc(SCC(N)=O)n1-c1ccc(F)cc1,4µM*[single pt active]
Cc1ccc(NC(=O)CS(=O)CC(=O)Nc2ccc3c(c2)OCO3)cc1Cl (centres undefined),-6%

(list continues)
canonical_smiles,AmpC nodet inh
CN1CCN(S(=O)(=O)c2ccc(Sc3nc4ccccc4[nH]3)c3nsnc23)CC1,39%
C=CCn1c(COc2ccc(CC)cc2)nnc1SCC(=O)N(C)C1CCS(=O)(=O)C1 (centres undefined),136%
CCOC(=O)C1C(=O)C=C(c2cccc(NS(C)(=O)=O)c2)CC1c1ccco1 (centres undefined),21%
CC(=O)Oc1ccc(C(c2ccc(OC(C)=O)cc2)c2ccccn2)cc1,57%
OC[C@H]1O[C@@H]2O[C@H]3[C@H](O)[C@@H](O)[C@@H](O[C@H]4[C@H](O)[C@@H](O)[C@@H](O[C@H]5[C@H](O)[C@@H](O)[C@@H](O[C@H]6[C@H](O)[C@@H](O)[C@@H](O[C@H]7[C@H](O)[C@@H](O)[C@@H](O[C@H]1[C@H](O)[C@H]2O)O[C@@H]7CO)O[C@@H]6CO)O[C@@H]5CO)O[C@@H]4CO)O[C@@H]3CO,-1%
O=S(=O)(c1ccc(F)cc1)N1CCC(N2CCCC2)CC1,4µM*[single pt active]
COc1ccc(Oc2ncnc3c2oc2ccc(Br)cc23)cc1,6%
CCn1cc(C(=O)O)c(=O)c2ccc(C)nc21,3%

Remaining list, next part
canonical_smiles,AmpC nodet inh
COC(=O)CNC(=O)C1CCCN1C(=O)CNC(=O)OC(C)(C)C (centres undefined),-5%
O=C1CC(N2CCN(c3ccc(O)cc3)CC2)C(=O)N1Cc1cccs1 (centres undefined),10%
COc1ccc(N2CCN(C(c3ccccc3OC)c3nnnn3Cc3ccco3)CC2)cc1 (centres undefined),61%
COC(=O)c1cc2c(cn1)[nH]c1ccccc12,10%
Cc1ccsc1-c1nc(CSCC(=O)NCCN2CCCC2)c(C)o1,13%
CC(C)NC(=O)C1CCCN(S(=O)(=O)c2cccs2)C1 (centres undefined),1%
CCCNc1nc2c(c(=O)n(C)c(=O)n2C)n1Cc1ccc(F)cc1,23%
Cc1nc2c(c(C)nn2-c2ccccc2)c(C)c1Cl,-4%

Further structures:
canonical_smiles,AmpC nodet inh
COC(=O)c1ccc(OCC(O)CN(CCO)CCO)cc1 (centres undefined),10%
Cc1c(C(=O)NCc2ccc3c(c2)OCO3)oc2ccc(S(=O)(=O)N3CCCC3)cc12,9%
CCCCOc1ccccc1NC(=O)c1ccc(=O)[nH]c1,1%
Cc1cc(C)nc(N2CCC(C(=O)Nc3ccc(Oc4ccccc4)cc3)CC2)n1,8%
COc1ccccc1-c1cc(NCc2cccnc2)ncn1,-1%
O=C(Nc1ccccc1Cl)NC1(C(=O)NCCCN2CCOCC2)CCCCC1,-2%
O=C(c1csnn1)N1CCC[C@@]2(CCN(c3ccccn3)C2)C1,7%
Cc1ccc(SCC(=O)N2CCOCC2)cc1,4%

The listing continues:
canonical_smiles,AmpC nodet inh
Nc1nc(N2CCCCC2)nc2ccccc12,18%
O=C(NCc1ccccn1)c1nnc(Cc2ccc(Cl)cc2)o1,20%
CCOC(=O)C1CCN(C(=O)c2sc3nc(-c4ccc(F)cc4)cn3c2C)CC1,123%
COc1ccc(OC)c(NC(=O)Nc2ccccc2C)c1,-11%
Cn1c(Cc2ccccc2)nnc1SCC(=O)c1ccc(Br)s1,24%
COc1ccc(C(=O)Nc2cccc(C(=O)N3CCN(C)CC3)c2)cc1,-2%
CCCCc1c(O)nc(SCC(=O)N2CCOCC2)[nH]c1=O,-1%
Cc1[nH]c2ccccc2c1C(=O)CN1CCCCC1C (centres undefined),6%

The listing continues:
canonical_smiles,AmpC nodet inh
O=C(O)c1ccc(S(=O)(=O)c2ccccc2)cc1,-12%
COc1ccc(CCC(=O)N2CCN(C3CCCCC3)CC2)cc1,24%
COc1cc(C[C@H]2C(=O)OC[C@@H]2Cc2ccc(OC)c(OC)c2)ccc1O,35%
COc1cc(S(=O)(=O)N2CCN(Cc3ccccc3)CC2)ccc1Br,26%
COc1ccc(S(=O)(=O)NCCSC(C)(C)C)cc1Cl,43%
Cc1cccc(N(CC(=O)NC2CCCCC2)C(=O)CCC(=O)Nc2cc(C)ccn2)c1,40%
C[C@H](N[C@@H](C)CCc1ccccc1)[C@H](O)c1ccc(O)cc1,0%
CC(=O)OC(C(=O)NC1CCCCC1)c1ccncc1 (centres undefined),8%

Following part
canonical_smiles,AmpC nodet inh
O=C(c1ccc(Cl)cc1)c1ccc(OCC(=O)N2CCOCC2)cc1,64%
O=C1CC(N2CCOCC2)C(=O)N1c1cc(Cl)cc(Cl)c1 (centres undefined),-17%
CN(C(=O)c1ccncc1)c1nnc(-c2ccncc2)s1,-6%
COc1ccc(CNC(=O)c2cc(C3CC3)on2)cc1,-4%
CN(Cc1ccco1)c1ncnc2ccc(-c3ccccc3Cl)cc12,74%
O=C(OCC1CO1)C1CCCCC1C(=O)OCC1CO1 (centres undefined),82%
Cc1cc(OC(=O)c2ccccc2)n(CCC#N)n1,1%
CC(C)COC(=O)C(C#N)c1nc2ccccc2nc1N1CCN(Cc2ccc3c(c2)OCO3)CC1 (centres undefined),30%

Continuation:
canonical_smiles,AmpC nodet inh
COc1cc(N2CN=c3s/c(=C\c4ccccn4)c(=O)n3C2)cc(OC)c1OC,90%
CCOC(=O)c1c(C)oc(NC(=O)COc2ccc(Cl)cc2C)c1C#N,-5%
COCc1nc(-c2cc(OC)c(OC)c(OC)c2)no1,9%
CCCOc1ccc(Cn2cnc3ccccc32)cc1,12%
COc1ccc(CCNC(=O)C2CC(=O)N(c3ccccc3)C2)cc1OC (centres undefined),5%
Nn1c(SCC(=O)NC2CCCc3ccccc32)nnc1-c1cccs1 (centres undefined),5%
CC1Cc2ccccc2N1C(=O)COC(=O)c1ccc(S(=O)(=O)N(C)C)cc1 (centres undefined),45%
O=C1CC(N2CCN(C/C=C/c3ccccc3)CC2)C(=O)N1Cc1ccc(N2CCCC2=O)cc1 (centres undefined),128%

(next part)
canonical_smiles,AmpC nodet inh
C=CCn1c(Br)nc2c1c(=O)n(C)c(=O)n2C,5%
CCOc1ccccc1N1CCN(S(=O)(=O)c2cccs2)CC1,26%
COc1ccccc1NC(=O)c1ccc(NC(=O)CSc2nnnn2C)cc1,0%
CCOC(=O)CN(C(=O)CN1CCOCC1)c1ccc(Br)cc1,36%
CC(C)c1c(C#N)c(N)nc(SCC(=O)c2cc3ccccc3oc2=O)c1C#N,-14%
CCC1CCCCN1C(=O)N[C@@H](CCSC)C(=O)OC (some centres undefined),6%
Cc1cccc(N(CC(=O)NCc2ccccc2)C(=O)Cn2nnc(-c3ccc(C)o3)n2)c1,-6%
COc1ccc(C2(O)CCN(C(=O)NC3CCCCC3)CC2)cc1,28%

Quoted at random: three records from the list
canonical_smiles,AmpC nodet inh
C=CCn1c(Br)nc2c1c(=O)n(C)c(=O)n2C,5%
CCOc1ccccc1N1CCN(S(=O)(=O)c2cccs2)CC1,26%
CCC1CCCCN1C(=O)N[C@@H](CCSC)C(=O)OC (some centres undefined),6%

Other results.
canonical_smiles,AmpC nodet inh
CCCCNC(=O)C(c1ccc(OCC(=O)OC)c(C(=O)OC)c1)N(Cc1ccccc1)C(=O)CCCCCN1C(=O)NC(c2ccc(-c3ccccc3)cc2)C(C(=O)OCc2ccccc2)=C1C (centres undefined),26%
CCN1C(=O)CSc2ccc(C(=O)NCCCN3CCOCC3)cc21,7%
Cc1cc(N2CCN(C)CC2)nc2ccc(NC(=O)CCC(=O)NCc3ccco3)cc12,23%
Cc1ccc(-c2noc(CCCC(=O)Nc3cccnc3)n2)cc1,17%

Source: PubChem (National Center for Advancing Translational Sciences (NCATS))
